# Screening data as filed in PubChem.
# Resorufin autofl – compounds fluorescent in resorufin spectral region | 59,000 tested, 0.04% active | AID 588 | Compound fluorescence, resorufin region 547/598 nm, buffer; hits give high values | max dye-equivalent concentration, M; active = above 10 nM dye equivalent; inconclusive = 1 to 10 nM; inactive = 1 nM or less; a few of its hits are not listed in these tables; note: highest value over a series up to 38 µM
#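 Intrinsic fluorescence profiled in the resorufin window (ex 547 nm, em 598 nm) after 15 min at room temperature in pH 8.0 Tris buffer (100 mM); responses normalized against a six-point resorufin standard series as dye-equivalent concentration.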
# AID923 – qHTS Assay for Allosteric/Competitive Inhibitors of Caspase-1: Spectroscopic Profiling in AFC Spectral Region. compound fluorescence, AFC spectral region (405/520 nm); almost no hit is shown here. 75,000 tested, 1.1% active. Potency, µM (series often up to 57.5 µM), inactives show top-dose fluorescence increase, actives largely listed as activators; active = well fitted activation curve with a large enough effect; inconclusive = small, poorly fitted or top-dose-only effect;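 note: potency is the fitted concentration of half-maximal effect; 0% is about no effect; scaled to a free AFC standard on each plate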
#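 Compound autofluorescence profiled at 405 nm ex/520 nm em during kinetic caspase 1 run (50 nM enzyme, 5 uM Ac-WEHD-AFC, HEPES pH 7.5, 10 mM DTT). Titration up to 57 uM; baseline from regression intercept, normalized to AFC standard curve.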
# A647 fluor – compound autofluorescence in A647 spectral region. 59,000 tested, under 10 active. Compound fluorescence, A647 channel (570/671 nm), Tris buffer. max dye-equivalent concentration, M. AID 592; active means above 1 µM dye equivalent; inconclusive means 0.1 to 1 µM; inactive means 0.1 µM or less;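 note: values scaled relative to a standard on each plate; highest value over a series up to 38 µM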
#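 Buffer was dispensed, compounds and Alexa 647 standards were pin-transferred, and plates sat 15 min at room temperature. Intensity at 570/671 nm was then converted to dye-equivalent concentration using the plate's A647 standard curve.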
# TSHR agonist – agonists of human thyroid stimulating hormone receptor. P16473. HEK293-CNG-TSHR cells (CNG channel as cAMP sensor), membrane potential dye, cAMP. Potency, µM (highest dose often 57.1 µM), for the others: top-dose activation, hits mostly activators. 73,000 tested, 0.48% active; active = well fitted activation curve of enough size with the parental cells flat; inconclusive = any curve in the parental cells; inactive = parental cells flat and receptor cells flat or falling; note: potency is the fitted concentration of half-maximal effect; % of control where 0% means no effect; weak receptor curves with flat parental cells got no call and are not listed
# Target sequence (P16473 whole entry, looked up): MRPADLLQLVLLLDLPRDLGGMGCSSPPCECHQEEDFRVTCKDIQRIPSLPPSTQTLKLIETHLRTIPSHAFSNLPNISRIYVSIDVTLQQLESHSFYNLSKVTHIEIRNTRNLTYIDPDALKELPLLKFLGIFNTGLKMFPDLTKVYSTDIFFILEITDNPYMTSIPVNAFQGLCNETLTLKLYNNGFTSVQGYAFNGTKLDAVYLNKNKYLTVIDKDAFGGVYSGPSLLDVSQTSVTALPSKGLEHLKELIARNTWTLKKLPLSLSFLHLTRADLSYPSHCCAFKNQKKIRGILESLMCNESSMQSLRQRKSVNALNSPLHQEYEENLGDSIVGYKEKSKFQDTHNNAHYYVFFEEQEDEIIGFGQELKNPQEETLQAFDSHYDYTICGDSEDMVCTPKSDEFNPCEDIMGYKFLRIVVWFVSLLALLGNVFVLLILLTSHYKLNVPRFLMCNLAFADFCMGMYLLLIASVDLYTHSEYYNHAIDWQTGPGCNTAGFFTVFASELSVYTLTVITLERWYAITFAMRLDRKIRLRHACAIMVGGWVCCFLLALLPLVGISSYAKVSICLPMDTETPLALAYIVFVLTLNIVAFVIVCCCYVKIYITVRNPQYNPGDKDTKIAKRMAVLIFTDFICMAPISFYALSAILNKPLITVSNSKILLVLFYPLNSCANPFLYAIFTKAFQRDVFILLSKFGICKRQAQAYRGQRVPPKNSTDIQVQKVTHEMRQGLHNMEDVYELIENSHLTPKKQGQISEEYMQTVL
#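 HEK 293 cells stably expressing TSHR and a cAMP-gated CNG channel; parental CNG-only cells as counterscreen. Cells preloaded 60 min with membrane potential dye plus 100 uM RO 20-1724, then compound 30 min; fluorescence read at 590 nm.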
# A488 fluor – A488 region autofluorescence; compound autofluorescence, A488 spectral region, dye equivalency; hits give high values; max dye equivalency, M; 59,000 tested, 0.1% active; active = above 10 nM dye equivalent; inconclusive = 1 to 10 nM; inactive = 1 nM or less; about half of its hits are not listed in these tables;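 note: highest value over a series up to 38 µM; compound alone in buffer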
#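 Spectroscopic profiling in the A488 region: compounds in pH 8.0 Tris (100 mM), 15 min RT, CCD imaging with 480 nm excitation and 540 nm emission; responses normalized against A488 dye standards.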
# The depositor's hits bear a star; i = inactive; ? = inconclusive; nt = not tested or not shown; & = joins results of further samples; [ ] = another dose, or the depositor's remark. The list is partial. The share of hits here may be higher or lower than overall.
Structure	Resorufin autofl	AID923	A647 fluor	TSHR agonist	A488 fluor
Cc1cc2nc(C)n3c4ccccc4nc3n2n1	i	-0.1%	4.5e-08	17%	i
O=C(O)c1ccc(CO)o1	nt	4.2%	nt	0%	nt
Cn1cccc1C(=O)N1CCC2(CC1)CN(C(=O)Nc1cccc(C#N)c1)C2	i	-1.0%	1.9e-08	8%	i
Cc1ccc(-n2c(Cc3cccn3C)nnc2SCC(=O)N2CCc3ccccc32)cc1	i	-0.4%	1e-09	23%	i
Cc1csc(NC(=O)CCS(=O)(=O)c2ccc(Br)cc2)n1	i	1.9%	2.4e-08	7%	i
CC(C)c1nc(SCC(=O)NCc2ccc3c(c2)OCO3)c2c(=O)n(C)c(=O)n(C)c2n1	nt	2.3%	nt	-1%	nt
COc1cc(NC(=O)C2COc3ccccc3O2)c(OC)cc1Cl (stereo not given)	i	-1.0%	4e-08	?	i
CCOC(=O)[C@]1(C(NC(=O)OC)c2ccco2)CCCC1=O (stereo not given in full)	nt	3.5%[11.5 µM]	nt	-1%[11.4 µM]	nt
Cc1ccc(-c2nnn(CC(=O)N(Cc3cccs3)C(C(=O)NC(C)(C)C)c3ccc(C)o3)n2)o1 (stereo not given)	i	1.4%	1e-09	?	i
CC1(C)S[C@@H]2[C@H](NC(=O)[C@@H](N)c3ccc(O)cc3)C(=O)N2[C@H]1C(=O)O	i	-0.4%[25.7 µM]	5.2e-09	-7%[25.6 µM]	i
Cc1cc(C)c2c(-n3cccc3)c(C(=O)O)sc2n1	i	0.7%	2.8e-08	?	i
COCCCn1c2nc3ccccc3nc2c2c(=O)n(CC3CCCO3)cnc21 (stereo not given)	i	nt	1e-09	nt	i
CCOc1ccc(S(=O)(=O)n2cnc3cc(C)c(C)cc32)cc1	i	2.7%	4.2e-08	?	i
Cc1ccc2c(c1)NC(=O)C(CC(=O)NCCCN1CCCC1)O2 (stereo not given)	nt	-0.8%	nt	-19%	nt
COc1ccc(CCCC(=O)O)c(C)c1	i	5.4%[11.5 µM]	1e-09&1e-09	14%	i
CC(=O)Cc1nsc(NC(=O)c2ccc(-c3cccc(C(F)(F)F)c3)o2)n1	i	-0.4%	1.9e-08	25%	i
Cc1oc2nc(SCC(=O)N3CCCCC3)nc(N)c2c1C	i	-1.4%	1e-09	2%	i
O=C(COc1ccccc1)NCc1ccc2c(c1)OCO2	i	-0.5%	5.7e-08	0%	i
COc1ccc(S(=O)(=O)Cc2ccc(C(=O)NC3CC3)o2)cc1	nt	-2.2%	nt	1%	nt
CCOC(=O)N1CCC(NC(=O)CN2C(=O)CSc3ncccc32)CC1	nt	4.0%	nt	8%	nt

# Structural class, the entries above with a thiophene ring, fused or not.
Structure	Resorufin autofl	AID923	A647 fluor	TSHR agonist	A488 fluor
Cc1ccc(-c2nnn(CC(=O)N(Cc3cccs3)C(C(=O)NC(C)(C)C)c3ccc(C)o3)n2)o1 (stereo not given)	i	1.4%	1e-09	?	i
Cc1cc(C)c2c(-n3cccc3)c(C(=O)O)sc2n1	i	0.7%	2.8e-08	?	i

# Going on with the list:
Structure	Resorufin autofl	AID923	A647 fluor	TSHR agonist	A488 fluor
CC(NC(=O)c1cccnc1)c1ccc2c(c1)OCO2 (stereo not given)	i	-0.5%	1e-09	-1%	i
CCCc1cc(C(N)=O)c(NC(=O)c2ccco2)s1	i	-0.4%	3.9e-08	10%	i
COc1ccc(NC(=O)Nc2cc(C)ccn2)cc1	nt	-0.3%	nt	-10%	nt
O=C(CCn1nnc2ccccc21)Nc1nnc(-c2ccccc2F)s1	i	-1.2%	1e-09	-3%	i
O=C1CC(N2CCC(O)(c3ccc(Cl)cc3)CC2)C(=O)N1Cc1ccc(N2CCCC2=O)cc1 (stereo not given)	i	-0.3%	1e-09	5%	i
Cc1sc(-n2cccc2)c(C(=O)O)c1C	i	-0.4%	4.1e-08	1%	i
CC(CC(C)C(=O)N1CCOCCN(C(=O)C(C)CC(C)C(=O)O)CCOCC1)C(=O)O (stereo not given)	i	-0.7%	1e-09	-7%	i
C=CCn1c(-c2cc(OC)cc(OC)c2)n[nH]c1=S	i	-0.8%	1e-09	26%	i
Cc1cc(C(F)(F)F)c2c(C)nn(CCc3nn[nH]n3)c2n1	i	-0.9%	3.4e-08	9%[11.4 µM]	i
CC(C)(C)c1cc(C(=O)NCc2ccco2)ccn1	i	4.1%	1e-09	8%	i
CS(=O)(=O)N(CCC(=O)O)Cc1ccccc1	i	-0.8%	1e-09	3%	i
CC1(C)CC(=O)C(C=NCCN2CCN(CCCCS(=O)(=O)O)CC2)=C(O)C1	i	2.9%	3.5e-09	-4%	i
O=C(Cc1ccc2c(c1)OCCO2)c1c(O)cc(O)cc1O	nt	0.7%	nt	-10%	nt
CC1CCCCN1C(=O)Cn1c(=O)n(C2CCCCC2)c(=O)c2ccccc21 (stereo not given)	i	0.3%	8.9e-09	16µM*	i
COc1c(C)cc(Br)cc1C(=O)Nc1cccc(-c2nc3ncccc3o2)c1	nt	2.0%	nt	25%	nt
Cc1cc(C)nc(N2CCC(C(=O)NCc3ccco3)CC2)n1	i	0.7%	2.6e-08	6%	i
Cc1cc(NC(=O)c2cc(C(C)C)on2)no1	i	-2.1%	1.5e-08	0%	i
CCCCOc1ccc(-c2nnn(CC(=O)Nc3ncc(CC(=O)OCC)s3)n2)cc1	i	0.9%	2.9e-08	1%	i
Cn1c(SCCS(=O)(=O)c2ccc(Cl)cc2)nnc1-c1ccccc1	i	0.1%	4.7e-09	10%	i
Oc1ccccc1-c1nc(NCCN2CCOCC2)c2ccccc2n1	i	nt	6e-09	nt	i
C(/CCc1ccccc1)=N\n1cnnc1	i	-1.2%	1e-09	-7%[11.4 µM]	i
COc1ccc(CCN2CC3=C(C2=O)C(c2ccccc2)NC(=O)N3C)cc1OC (stereo not given)	i	0.3%	1.5e-09	9%	i
CCOC(=O)Oc1ccc2oc(=O)cc(C)c2c1	nt	0.4%	nt	-9%	nt
CC1CCCN(C(=O)c2cc(F)c(F)cc2Cl)C1 (stereo not given)	i	-1.4%	1e-09	0%	i
CCOC(=O)C1CCN(Cc2ccc(N(C)C)cc2)CC1	nt	-2.3%	nt	4%[11.4 µM]	nt
Cc1ccc(OC(=O)c2ccc(C)c(C)c2)cn1	i	1.2%	8.6e-09	2%	i
O=C(O)CCCCCNc1nc2ncn(Cc3ccccc3)c2c(=O)[nH]1	i	0.0%	5.1e-09	-1%	i
O=c1n(-c2ccccc2)c(=O)n2n1CC[C@H]1/C(=N\OC[C@@H](O)COCc3ccco3)[C@H]3O[C@@H]3[C@@H](O)[C@@H]12	nt	-1.3%&-1.8%[11.5 µM]	nt	-5%&6%[11.4 µM]	nt
CCN(CCNC(=O)C1CCCN(S(=O)(=O)c2cnc[nH]2)C1)c1ccccc1 (stereo not given)	nt	0.9%	nt	6%	nt
O=C(O)c1c2c(nc3ccc(S(=O)(=O)N4CCC(C(=O)NC5CCCC5)CC4)cc13)CCCCC2	nt	-0.4%	nt	?	nt
Nc1nnc(SCC(=O)NC2CCCCC2)n1-c1ccccc1	i	2.1%	1e-08	5%	i
COCC(=O)N1CCC2(CCCN(c3ccccc3)C2)CC1	i	-0.3%	9.3e-09	?	i
Cc1ccc(-c2nc(COC(=O)c3c(C)noc3C)cs2)cc1	i	0.6%	4.9e-09	?	i
COc1ccc(C(=O)N(Cc2nc(-c3ccc(C)cc3)no2)C(C)C)cc1OC	nt	-2.2%	nt	28%	nt
CCCCN(CC)CCNC(=O)Cn1cnc2sc(C)c(S(=O)(=O)N3CCOCC3)c2c1=O	i	0.7%	4.8e-08	-2%	i
O=C(NCc1ccco1)C1OCCc2ccccc21 (stereo not given)	i	1.5%	2.1e-08	?	i
COc1ccc(C[C@@H]2c3cc(OC)c(OC)cc3CC[N@+]2(C)CCC(=O)OCCCCCOC(=O)CC[N@@+]2(C)CCc3cc(OC)c(OC)cc3[C@H]2Cc2ccc(OC)c(OC)c2)cc1OC	i	6.3%[25.7 µM]	1e-09	-11%[25.6 µM]	i
Cc1ccc(C)n1-n1c(C)nc2scc(-c3cccs3)c2c1=O	nt	1.0%	nt	?	nt
Cc1ccc2cc3cc(C(=O)N4CC(C)CC(C)C4)oc3nc2c1 (stereo not given)	i	0.8%	8.2e-09	26%	i
CSc1nc(C)cc(Nc2ccc(O)c(CN3CCOCC3)c2)n1	i	-2.4%[11.5 µM]	1.8e-09	1%[11.4 µM]	i
CCOC(=O)CCN(Cc1cccs1)S(=O)(=O)c1ccc(Cl)cc1	i	0.7%	2.3e-09	?	i
COc1ccc2[nH]cc(C(=O)CN3CCCCC3)c2c1	i	1.4%	1.9e-08	2%	i
CC(=O)c1c(C(C)=O)c(C)n(NC(=O)c2cccnc2)c1C	i	-2.2%	7e-09	?	i
CCN(CC)CCCN1C(=O)C(O)=C(C(=O)c2ccco2)C1c1cc(OC)ccc1OC (stereo not given)	i	-0.6%	1.3e-08	8%	i
COCCNC(=O)Cn1cnc2ccc(S(=O)(=O)N3CCC(C)CC3)cc2c1=O	i	-0.6%	1e-09	?	i
O=C1CCC(=O)N1c1ccc(CSc2nnnn2C2CCCCC2)cc1	nt	2.8%	nt	3%	nt
CC1(C)Cc2cccc(OCC(=O)N3CCN(S(=O)(=O)c4ccccc4F)CC3)c2O1	i	-0.9%	1e-09	4%	i
O=C(CN1CCN(c2nc(-c3ccc(Cl)cc3)cs2)CC1)NCc1ccco1	i	11%	2.9e-09	-1%	i
Cc1cccc2cc(CN(Cc3cccnc3)C(=O)c3ccncc3)c(=O)[nH]c12	i	0.4%	4.1e-08	-5%	i
CC1CCN(CCc2nc3cc(NC(=O)Nc4ccccc4)ccc3n2C)CC1	i	0.1%	6.8e-09	23%	i

# Later entries
Structure	Resorufin autofl	AID923	A647 fluor	TSHR agonist	A488 fluor
COc1cc(OC)c(C2C(C#N)=C(N)OC3=C2C(=O)CC(C)C3)cc1OC (stereo not given)	nt	4.5%	nt	7%	nt
Cc1cc2cc(CCNC(=O)CC(C)(C)C)c(=O)[nH]c2cc1C	nt	3.6%	nt	15%	nt
COc1ccc(S(=O)(=O)N2CCN(S(=O)(=O)c3ccc4c(c3)OCCO4)CC2)cc1C	i	-0.3%	3.4e-09	21%	i
COc1cc(C(=O)Nc2nccs2)c(Br)c(OC)c1OC	i	-2.3%	5.5e-08	?	i
Cc1cc(N2CCN(c3nc4ccccc4s3)CC2)n2ncnc2n1	i	-0.4%	7.8e-09	?	i
COc1ccc(NC(=O)C2CC(c3ccc(OC)c(OC)c3)=NO2)cc1OC (stereo not given)	i	-0.4%	2.4e-08	11%	i
O=C(NC12CCC(O)C(SC1)/C2=N/O)c1ccccc1 (stereo not given)	i	2.8%	2.3e-09	6%	i
Cc1nc(NCc2ccc3c(c2)OCO3)c2nnn(Cc3ccccc3)c2n1	i	-0.3%	3.1e-09	4%	i
COc1ccc(N2C(=O)NC3CC2(C)Oc2ccc(Br)cc23)cc1OC (stereo not given)	i	-0.5%	1.9e-08	11%	i
c1ccc(Oc2nc(NCc3ccco3)nc(NCc3ccco3)n2)cc1	i	-1.1%	1.2e-09	12%	i
CCn1c(CNC(=O)c2ccco2)nnc1SCC(=O)Nc1cc(C(F)(F)F)ccc1Cl	i	-0.1%	1e-09	nt	i
CCOC(=O)c1cc(NC(=O)OC)c(C)nc1C	i	-0.8%	1.9e-08	1%	i
O=C(Nc1ncccn1)C1CCCN1S(=O)(=O)c1ccc(Cl)c(Cl)c1 (stereo not given)	i	-1.0%	1e-09	3%	i
